FPR = small-molecule ligands of human FPR – U937-FPR cells, fMLFK-FITC, flow cytometry, primary screen (AID 362); inhibition, %; 4,300 tested, 1% active; U937-FPR cells, fMLFK-FITC displacement, flow cytometry; active compounds read high; test concentration not given here; most inactive calls were filed without a number and no value below 0 was filed;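 active = inhibition of labelled peptide binding to the formyl peptide receptor of at least 65%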;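 note: plate controls were buffer control wells for no effect and unlabeled fMLFF blocking peptide for full effect; higher means less cell fluorescence so more probe displaced; part of the set was picked by virtual screening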
* marks the source's active call; other numbers are inactive results; i = inactive. Some of the compounds tested (hit frequency here may not be typical).

FPR	mol
i	COc1ccc(OC)c(S(=O)(=O)NC2CCCCCCC2)c1
i	COc1ccc(C2(C(=O)N3CCOCC3)CCCC2)cc1OC
6.8	Nc1ccc(S(=O)(=O)N(Cc2cccc(Br)c2)CC2CCC(C(=O)NO)CC2)cc1 (stereo not given)
i	CC(=O)NCC(=O)N(c1c(C)n(C)n(-c2ccccc2)c1=O)C1(C(=O)NC2CCCC2)CCCCC1
33.6	CCCCCCC1(C)N=C(c2ccc3c(c2)OCO3)CC(c2ccccc2O)N1 (stereo not given)
i	CC(=O)N1CCN(c2nc(Nc3ccccc3C(=O)c3ccccc3)nc(OC(C(F)(F)F)C(F)(F)F)n2)CC1
7.1	O=C1C2=C(c3cc(O)ccc3OCc3ccccc3)CCCN2C(=O)CN1Cc1ccccc1
i	CCCS(=O)(=O)c1c(S(=O)(=O)CCC)c2cc(CC)ccn2c1C(=O)c1ccc(C)cc1
2.6	N#CC1=C(N)OC2=C(C(=O)CCC2)C1C1CCCCC1 (stereo not given)
i	COc1ccc([N+](=O)[O-])cc1N1C(=O)C2C3C=CC(CC3)C2C1=O (stereo not given)
i	CCCC(=O)Oc1ccc2c3c(c(=O)oc2c1)CCC3
i	CC1=C(C(=O)OCC(C)C)C(c2ccc(OCc3ccccc3)cc2)C2=C(CC(c3ccccc3)CC2=O)N1 (stereo not given)
i	O=C(Nc1ccc(F)cc1)C1CCC(CNS(=O)(=O)c2ccc(Br)s2)CC1 (stereo not given)
18.5	CCOC(=O)C1=C(C)NC2=C(C(=O)C(C(=O)OC)C(C)C2)C1c1ccc(CC)cc1 (stereo not given)
i	CCOc1ccc(N(CC)C(=O)c2cn(CC(C)C)c(=O)c3cc(OC)c(OC)cc23)cc1
i	CCN(CCCNC(=O)C(NS(=O)(=O)c1ccc2c(c1)CCN2C(C)=O)C(C)C)c1ccccc1 (stereo not given)
i	COC(=O)Cn1cnc2sc(C)c(S(=O)(=O)N3CC(C)CC(C)C3)c2c1=O (stereo not given)
i	CCOC(=O)c1cc2c(=O)n3ccccc3nc2n(C2CCCCC2)c1=NC(=O)c1ccc(OC)c(OC)c1
13.6	CCSCCOC(=O)C1=C(C)NC2=C(C(=O)C(C(=O)OC)C(C)C2)C1c1ccc(C(C)C)cc1 (stereo not given)
i	CCOc1cc(C2C(C(=O)OCC(C)C)=C(C)NC3=C2C(=O)CC(c2cccs2)C3)cc([N+](=O)[O-])c1O (stereo not given)
4.1	Cc1cccc(CCNC(=O)C2CCC(CNS(=O)(=O)c3c(C)cc(C)cc3C)CC2)c1 (stereo not given)
i	CCCCn1c(SCC(=O)NCc2ccccc2)nc2ccsc2c1=O
4.7	COc1cc2c(cc1OC)C1C(C(=O)NCCC3=CCCCC3)c3ccccc3C(=O)N1CC2 (stereo not given)
i	COC(=O)C1C(=O)C2=C(CC1C)NC(C)=C(C(=O)OC1CCCCC1)C2c1cccc(Cl)c1 (stereo not given)
2.1	COC(=O)C1C(=O)C2=C(CC1C)NC(C)=C(C(=O)OC1CCCCC1)C2c1ccccc1[N+](=O)[O-] (stereo not given)
15.1	CC(=O)N1CCc2cc(S(=O)(=O)NC(C(=O)Nc3ccc(C)cc3C)C(C)C)ccc21 (stereo not given)
i	CC(=O)N1CCCc2cc(S(=O)(=O)NC(C(=O)NCc3ccccc3Cl)C(C)C)ccc21 (stereo not given)
i	Cc1ccc(-n2c(=O)c3sccc3n(Cc3cc(=O)n4cc(Cl)ccc4n3)c2=O)cc1F
i	Cc1ccc(-c2csc(C3C(N)=NC(S)=C(C#N)C34CCCCC4)n2)cc1 (stereo not given)
i	CCC1C/C(=C/c2cc(OC)c(OC)c(OC)c2)C(=O)/C(=C/c2cc(OC)c(OC)c(OC)c2)C1 (stereo not given)
i	CCOc1cc2c(C(=O)N3CCN(c4ccc([N+](=O)[O-])cc4)CC3)cn(CC(C)C)c(=O)c2cc1OCC
i	CCOc1cc(C=C2C(=O)OC(C)(C(C)(C)C)OC2=O)cc(I)c1O (stereo not given)
i	CCCCC(NC1CCS(=O)(=O)C1)C(=O)O (stereo not given)
14.8	CCCCN(C(=O)NC(=O)NC(C)(C)C)S(C)(=O)=O
6.0	COc1ccc(S(=O)(=O)NC(CC(=O)N2CCc3ccccc32)C(C)C)cc1 (stereo not given)
44.6	COc1ccc(C2CC(=O)C3=C(C2)NC(C)=C(C(=O)OCC(C)C)C3c2ccc(OC)c(OC)c2)cc1 (stereo not given)
i	CC1CC(C)CN(S(=O)(=O)N2CCC(C(=O)NC3CCCCCCC3)CC2)C1 (stereo not given)
i	CC(=O)Oc1ccc2c(c1)CCC1C2C(O)CC2(C)C(=O)CCC12 (stereo not given)
i	CCOCCCNC(=O)C1CCC(CNS(=O)(=O)c2c(C)cc(C)cc2C)CC1 (stereo not given)
i	O=C(CSc1nc2ccccc2c(=O)n1CC1CCC(C(=O)NCc2ccccc2)CC1)NCCc1ccccc1 (stereo not given)
i	CC(=O)N1CCc2cc(S(=O)(=O)NC(C(=O)NCC3COc4ccccc4O3)C(C)C)ccc21 (stereo not given)
i	COc1cc2c(c([N+](=O)[O-])c1)OC1(C=C2)N(c2ccccc2)c2ccccc2C1(C)C (stereo not given)
1.5	Cn1c2c(c(=O)n(C)c1=O)C(C(F)(F)F)(C(F)(F)F)NC(=O)N2
i	CC(C)CC(Nc1ncnc2ccccc12)C(=O)O (stereo not given)
i	CCCCc1cc(=O)oc2cc(OC(C)C(=O)OCC)c(Cl)cc12 (stereo not given)
11.7	COc1ccc(Oc2c(C(F)(F)F)oc3cc(OC(=O)C(C)(C)C)ccc3c2=O)cc1
14.0	NC1=NC2(CCCCC2)N(c2ccc(O)cc2)C(N)=N1
i	Cc1ccc(S(=O)(=O)NCC2CCC(C(=O)N3CCCC3)CC2)cc1 (stereo not given)
52.9	COc1ccc(C2/C(=C(/O)c3ccc(C)cc3)C(=O)C(=O)N2CC(C)C)c(OC)c1 (stereo not given)
9.8	CCCCN(C)Cc1c(O)ccc2c3c(c(=O)oc12)CCC3
7.3	COC(=O)C1C(=O)C2=C(CC1C)NC(C)=C(C(=O)OC(C)C)C2c1ccccc1OC (stereo not given)
3.7	O=C1CCC(C(=O)N(Cc2cccs2)C2(C(=O)NC3CCCCC3)CCCCC2)N1 (stereo not given)
23.3	COc1ccc(C2/C(=C(\O)c3ccc(F)cc3)C(=O)C(=O)N2CCCCCC(=O)O)c(OC)c1 (stereo not given)
20.9	Cc1csc(-c2c(C(F)(F)F)oc3cc(O)c(C)cc3c2=O)n1
i	CCCOC(=O)C1=C(C)NC2=C(C(=O)C(C(=O)OC)C(C)C2)C1c1c(F)cccc1Cl (stereo not given)
2.8	O=C(O)C1CCCCC1C(=O)N1CCN(C(c2ccccc2)c2ccccc2)CC1 (stereo not given)
i	CC(C)CCn1c(CN2CCN(C(c3ccccc3)c3ccccc3)CC2)nc2c1c(=O)n(C)c(=O)n2C
3.3	CCCC1=C(C(=O)OCC)C(c2ccc(C(F)(F)F)cc2)NC(=O)N1C (stereo not given)
15.2	CC(=O)OC1=NN=C(OC(C)=O)C12CC=C(C)CC2c1ccc([N+](=O)[O-])cc1 (stereo not given)
i	CN(C)CCN1C(=O)C2C3C=CC(C2C1=O)C1C2C(=O)N(CCN(C)C)C(=O)C2C31 (stereo not given)

Some of the entries so far, with tabs.
mol	FPR
CCCC(=O)Oc1ccc2c3c(c(=O)oc2c1)CCC3	i
CC1=C(C(=O)OCC(C)C)C(c2ccc(OCc3ccccc3)cc2)C2=C(CC(c3ccccc3)CC2=O)N1 (stereo not given)	i
O=C(Nc1ccc(F)cc1)C1CCC(CNS(=O)(=O)c2ccc(Br)s2)CC1 (stereo not given)	i
CCOC(=O)C1=C(C)NC2=C(C(=O)C(C(=O)OC)C(C)C2)C1c1ccc(CC)cc1 (stereo not given)	18.5
CCOc1ccc(N(CC)C(=O)c2cn(CC(C)C)c(=O)c3cc(OC)c(OC)cc23)cc1	i
CCN(CCCNC(=O)C(NS(=O)(=O)c1ccc2c(c1)CCN2C(C)=O)C(C)C)c1ccccc1 (stereo not given)	i
COC(=O)Cn1cnc2sc(C)c(S(=O)(=O)N3CC(C)CC(C)C3)c2c1=O (stereo not given)	i
CCOC(=O)c1cc2c(=O)n3ccccc3nc2n(C2CCCCC2)c1=NC(=O)c1ccc(OC)c(OC)c1	i
CCSCCOC(=O)C1=C(C)NC2=C(C(=O)C(C(=O)OC)C(C)C2)C1c1ccc(C(C)C)cc1 (stereo not given)	13.6
CCOc1cc(C2C(C(=O)OCC(C)C)=C(C)NC3=C2C(=O)CC(c2cccs2)C3)cc([N+](=O)[O-])c1O (stereo not given)	i
Cc1cccc(CCNC(=O)C2CCC(CNS(=O)(=O)c3c(C)cc(C)cc3C)CC2)c1 (stereo not given)	4.1
CCCCn1c(SCC(=O)NCc2ccccc2)nc2ccsc2c1=O	i
COc1cc2c(cc1OC)C1C(C(=O)NCCC3=CCCCC3)c3ccccc3C(=O)N1CC2 (stereo not given)	4.7
COC(=O)C1C(=O)C2=C(CC1C)NC(C)=C(C(=O)OC1CCCCC1)C2c1cccc(Cl)c1 (stereo not given)	i
COC(=O)C1C(=O)C2=C(CC1C)NC(C)=C(C(=O)OC1CCCCC1)C2c1ccccc1[N+](=O)[O-] (stereo not given)	2.1
CC(=O)N1CCc2cc(S(=O)(=O)NC(C(=O)Nc3ccc(C)cc3C)C(C)C)ccc21 (stereo not given)	15.1

Next section
FPR	mol
i	O=C(C1CCCN(S(=O)(=O)c2ccc(Cl)cc2)C1)N1CCCCC1 (stereo not given)
17.1	CCOC(=O)C1C(=O)C=C(c2cccc(OC)c2)CC1c1ccccc1 (stereo not given)
i	CCOc1ccc(C2C(C#N)=C(N)Oc3cc(C)oc(=O)c32)cc1 (stereo not given)
i	CCCCn1c(SCC(=O)NCc2ccc(C)cc2)nc2ccc(N3CCOCC3)cc2c1=O
36.9	CC1CCC2(CC1)C(C#N)=C(SCC(=O)Nc1ccc(Br)cc1)NC(=O)C2C#N (stereo not given)
i	COc1ccccc1CNC(=O)C1CCC(CNS(=O)(=O)c2ccc(F)cc2)CC1 (stereo not given)
6.1	CCOC(=O)C(C(C)CC)N(Cc1ccccc1)S(=O)(=O)c1ccc([N+](=O)[O-])cc1 (stereo not given)
i	COc1ccc(CCNc2ccc(N3C(=O)C4C5C=CC(C5)C4C3=O)cc2[N+](=O)[O-])cc1OC (stereo not given)
i	CCOc1ccc(CNC(=O)C2CCN(S(=O)(=O)N3CCC(C)CC3)CC2)cc1
i	O=C(CSc1nc2ccsc2c(=O)n1CC1CCC(C(=O)O)CC1)NCC1CCCO1 (stereo not given)
i	CCOC(=O)C1=C(C)NC(=S)NC1c1cc(C(C)C)c(OC)cc1C (stereo not given)
i	COc1ccc(OC)c(Nc2nc(Nc3cc(OC)ccc3OC)nc(N3CCC(C)CC3)n2)c1
i	O=C(COc1ccc(Br)cc1)Oc1ccc2c3c(c(=O)oc2c1)CCC3
i	CC(C)Cn1cc(C(=O)N2CCC(C(N)=O)CC2)c2c3ccccc3n(C)c2c1=O
22.0	CCCCCCC1CC(=O)N(Cc2ccc(C(=O)OC)cc2)C(=O)N1 (stereo not given)
i	CCCCC(CCC(=O)O)(C(=O)OCC)c1csc(Nc2ccc(C)cc2)n1 (stereo not given)
35.9	CCOc1cc(C2C(C(=O)OC3CCCCC3)=C(C)NC3=C2C(=O)CC(C)(C)C3)ccc1O (stereo not given)
1.2	CCSCCOC(=O)C1=C(C)NC2=C(C(=O)C(C(=O)OC)C(C)C2)C1c1ccc(F)cc1 (stereo not given)
i	CC(=O)C1C(c2cn(-c3ccccc3)nc2-c2cccs2)NC(=O)NC1(O)C(F)(F)F (stereo not given)
i	COc1ccc(C)cc1NC(=O)C(NS(=O)(=O)c1ccc2c(c1)CCN2C(C)=O)C(C)C (stereo not given)
i	CC1=CCC(C(=O)O)C(C(=O)Nc2nc3ccc(S(C)(=O)=O)cc3s2)C1 (stereo not given)
i	CCCCCC(C)C(C)c1cc(=O)c2c(c1)oc(=O)c1ccc[nH]c12 (stereo not given)
i	COC(=O)Oc1ccc2c(=O)c(Oc3cc(C)cc(C)c3)c(C(F)(F)F)oc2c1
i	Cc1ccc(CNC(=O)CSc2nc3ccsc3c(=O)n2CCCCCC(=O)NCCc2ccccc2)cc1
i	CC(=O)N1CCc2cc(S(=O)(=O)NC(C(=O)Nc3ccc(Br)cc3)C(C)C)ccc21 (stereo not given)
9.4	Cc1cc(C)c(S(=O)(=O)NCC2CCC(C(=O)N3CCCCC3)CC2)c(C)c1 (stereo not given)
i	Cc1ccc(S(=O)(=O)NCC2CCC(C(=O)N3CCN(c4cccc(C)c4C)CC3)CC2)cc1 (stereo not given)
i	Cc1c(C(C)C)c(N2CCOCC2)n2c(nc3ccccc32)c1C#N
i	O=C(Oc1ccc2c3c(c(=O)oc2c1)CCCC3)c1ccco1
26.5	CCCOCCOC(=O)C1=C(C)NC2=C(C(=O)C(C(=O)OC)C(C)C2)C1c1ccccc1OC(C)C (stereo not given)
10.9	COc1cc(C2C(C(=O)OC3CCCCC3)=C(C)NC3=C2C(=O)CC(C)(C)C3)cc(Cl)c1O (stereo not given)
3.4	CCCCN(C)Cc1c(O)ccc2c(=O)c(-c3ccccc3OC)c(C(F)(F)F)oc12
i	CN(C)CCCn1c(-c2ccc([N+](=O)[O-])cc2)nc(=S)c2c1CCCC2
2.8	COc1ccc(NC(=O)C2CC(=O)OC23CCCCC3)c([N+](=O)[O-])c1 (stereo not given)
i	CCN(C(=O)c1cn(CC(C)C)c(=O)c2cc(OC)c(OC)cc12)c1cccc(C)c1
5.1	CCSCCOC(=O)C1=C(C)NC2=C(C(=O)C(C(=O)OC)C(C)C2)C1c1ccccc1OC(C)C (stereo not given)
7.6	O=C(C1CCCN(S(=O)(=O)c2ccccc2)C1)N1CCCCC1 (stereo not given)
11.2	COc1ccc(-n2cc3c(c(C#N)c2=N)CC(C)(C)CC3=O)cc1
60.4	CC1=C(C#N)c2nc(N)c(C#N)c(C)c2/C1=C\c1cccnc1
i	O=C1C=C(N(CCO)CCO)C2(CCCCC2)O1
i	O=C(O)c1ccccc1NC(=O)C1CC=CCC1C(=O)O (stereo not given)
2.4	CCCOC(=O)C1=C(C)NC2=C(C(=O)C(C(=O)OC)C(C)C2)C1c1ccc(F)c(Br)c1 (stereo not given)
5.1	COC(=O)C1C(=O)C2=C(CC1C)NC(C)=C(C(=O)OC1CCCC1)C2c1cc(OC)ccc1OC (stereo not given)
16.6	COc1ccc(N2C(N)=NC(N)=NC23CCCC3)cc1
